Arbovirus inh: antivirals against arbovirus infection, primary screen, cell-based, full library, 10K replicate subset | arbovirus infection cell-based antiviral screen | hit rate 0.37% among 200,000 | inhibition, % at 10 µM;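 active = inhibition from about 30%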;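 also: bluetongue infection of BSR cells; cell survival read as ATP light after 72 h; 0% = infected wells without compound and 100% = uninfected wells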
YopH inh: YopH tyrosine phosphatase inhibitors, primary screen, biochemical, fluorescence Ex485/Em525. YopH tyrosine phosphatase [Yersinia enterocolitica]. inhibition, %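 (about 10 µM by stock and volumes)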. hit rate 0.16% among 140,000. AID 898, 2007;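 active = inhibition of 50% or more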;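 also: controls were vehicle for no effect and minimum signal wells for full effect; inactives centre near -20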
Mtb bLac sens: beta-lactam sensitization of Mtb H37Rv, H37Rv; AID 434955, 2010; M. tuberculosis H37Rv growth with meropenem, percent inhibition; hits of this screen are not shown here; hit rate 0.27% among 330,000; inhibition, % at 25 µM;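 active = about 74% or more and at least 40 points above the plate without the antibiotic, then above 30% in a dose series; inconclusive = first-round hits that could not be retested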;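 also: growth measured after seven days incubation then overnight dye step; 0% = bacteria only wells and 100% = bacteria with antibiotic; twin plates without the antibiotic show which effects depend on it; some results filed as inactive read as strong as hits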
Mtb growth: M. tuberculosis H37Rv growth inhibitors, H37Rv strain (AID 1626) | hit rate 0.95% among 220,000 | M. tuberculosis H37Rv growth inhibition; higher % means a stronger effect | one-dose inhibition, % at 10 µM; IC50 in µM for titrated hits;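 active = confirmed in a dose series; inconclusive = inhibition above 80% but not taken into the dose series; inactive = below 80% or under 30% at every dose of the series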;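 also: bacteria incubated seven days before Alamar blue readout; 0% = bacteria only wells and 100% = bacteria with antibiotic wells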
RecA splice inh: Mtb RecA intein splicing inhibitors, primary screen, biochemical, fluorescence, HTS; cell-free RecA intein splicing; inhibition, %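 (about 9 µM by stock and volumes)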; Protein RecA (Mycobacterium tuberculosis (strain ATCC 25618 / H37Rv)), P9WHJ3; hit rate 0.75% among 290,000; in the data active = inhibition above about 30%; inconclusive = no clear call, values can overlap the other calls;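 also: 0% = vehicle wells and 100% = reference inhibitor control wells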
Target sequence (P9WHJ3 whole entry, looked up, canonical isoform): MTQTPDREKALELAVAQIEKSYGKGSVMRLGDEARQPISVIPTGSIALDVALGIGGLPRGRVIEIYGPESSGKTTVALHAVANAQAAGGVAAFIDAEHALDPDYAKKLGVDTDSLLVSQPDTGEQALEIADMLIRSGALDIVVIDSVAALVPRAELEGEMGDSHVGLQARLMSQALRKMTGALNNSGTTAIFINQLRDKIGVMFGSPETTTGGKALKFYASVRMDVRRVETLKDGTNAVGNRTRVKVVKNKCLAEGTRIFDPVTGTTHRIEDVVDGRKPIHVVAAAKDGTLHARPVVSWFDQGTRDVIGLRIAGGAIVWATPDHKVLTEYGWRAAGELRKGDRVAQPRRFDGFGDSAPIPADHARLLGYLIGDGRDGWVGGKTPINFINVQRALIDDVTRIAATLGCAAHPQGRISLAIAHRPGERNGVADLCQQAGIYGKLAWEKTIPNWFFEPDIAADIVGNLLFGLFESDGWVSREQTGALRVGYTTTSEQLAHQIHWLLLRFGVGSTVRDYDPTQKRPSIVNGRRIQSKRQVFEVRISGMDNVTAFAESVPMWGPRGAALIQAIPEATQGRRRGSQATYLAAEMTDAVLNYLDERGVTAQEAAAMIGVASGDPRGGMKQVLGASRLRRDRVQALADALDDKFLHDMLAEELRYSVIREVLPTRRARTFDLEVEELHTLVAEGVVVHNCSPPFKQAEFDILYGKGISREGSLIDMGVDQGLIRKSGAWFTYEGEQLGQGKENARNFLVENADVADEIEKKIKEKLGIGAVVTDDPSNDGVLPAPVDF
Arbovirus inh repeat: second read-out of Arbovirus inh, no call of its own (marks repeat the call); inhibition, %; measured here: 10K subset replicate screen; many hits read low in the repeat;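 first of two repeat runs on a subset; 0% = infected and 100% = uninfected wells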
* hit, by the source's call; ? = inconclusive; . = not tested or not shown; & = joins results of further samples. This is a subset; count on the stated rates, not on these rows.

SMILES	Arbovirus inh	YopH inh	Mtb bLac sens	Mtb growth	RecA splice inh	others
COc1cc(OC)cc(C(=O)NNC(=O)NC2CCCCC2)c1	-9	-6	-6	-5%	0.6
Cc1onc(-c2ccccc2Cl)c1C(=O)NC(=S)NCCc1ccccc1	-10	-21	-3	8%	3.9
CCC(C)NC(=O)c1ccccc1NC(=O)C1COc2ccccc2O1 (configuration not stated)	-2	.	-5	1%	1.2
CC(=O)Nc1ccc(OCc2nnc(-c3ccc(Cl)cc3)o2)cc1	-4	.	-4	21%	0.0
Cn1nnc2cc(C(=O)N3CCCCCC3)ccc21	11	-8	2	-1%	-2.9	Arbovirus inh repeat=2
C#Cc1ccc([C@H]2C=C(C(=O)NCc3ccccc3)O[C@@H](OCc3ccc(CO)cc3)C2)cc1	.	.	-3	-4%	15
O=C(Nc1ccc2c(c1)OCO2)c1nn(-c2ccccc2)c(=O)c2ccccc12	5	-3	-7	-11%	3.8
O=C1N(CN2CCN(Cc3ccccc3)CC2)c2ccccc2C12OCCCO2	4	.	-11	-3%	.
CCN(CC)S(=O)(=O)c1ccc(N2CCN(C)CC2)c(NC(=O)c2cc(=O)c3ccccc3o2)c1	.	.	1	.	-1.8
O=C(Oc1ccc(-n2cnnn2)cc1)c1ccccc1	-2	.	-2	-4%	8.1
COc1cccc2sc(N3CCN(C(=O)c4cccs4)CC3)nc12	.	.	-18	.	-6.0
O=C(NCc1ccco1)c1cc2ccccc2c(=O)o1	9	-46	2	0%	2.7
CCCCNC1CCS(=O)(=O)C1 (configuration not stated)	5	6	1	8%	-2.5
COc1cccc(-c2cc(C(=O)NCCc3ccccc3)no2)c1	3	-16	4	3%	-3.7
COc1ccc(OC)c(NS(=O)(=O)c2ccc(NC(=O)c3ccc(NS(C)(=O)=O)cc3)cc2)c1	-1	-6	3	9%	0.1
C=CCOC(=O)C1=C(C)OC(N)=C(C#N)C1c1ccccc1F (configuration not stated)	6	-17	16	-11%	-1.1
CNC(=S)Nc1ccccc1-c1ccccc1	1	-36	-4	-7%	6.6
O=C1C2C3CC(C(Br)C3Br)C2C(=O)N1CC1CCCO1 (configuration not stated)	.	.	1	0%	-1.3
O=C(Cn1nnc(-c2ccccc2Cl)n1)N1CCCCC1	.	.	5	.	-1.1
COc1ccc(/C(CC2OC(=O)c3ccccc32)=N\NC(N)=O)cc1 (configuration not stated)	12	.	-5	-3%	-2.4
NC(=O)c1ccc(C(=O)N/N=C/c2cccc(Oc3ccccc3)c2)cc1	.	.	6	.	-0.1
CCOC(=O)c1ccn(-c2nc(-c3ccco3)cc(C(F)(F)F)n2)n1	5	-39	-3	-1%	-2.8	Arbovirus inh repeat=0
Cc1ccc(N2CN(CCC3=CCCCC3)CNC2=S)cc1	.	.	-12	-13%	1.3
Cc1ccc(-n2c(C)cc(/C=C(\C#N)C(=O)NCC3CCCO3)c2C)cc1 (configuration not stated)	-7	-14	53	4%	0.9

Gathered by group, the compounds so far with fluorine
SMILES	Arbovirus inh	YopH inh	Mtb bLac sens	Mtb growth	RecA splice inh	others
C=CCOC(=O)C1=C(C)OC(N)=C(C#N)C1c1ccccc1F (configuration not stated)	6	-17	16	-11%	-1.1
CCOC(=O)c1ccn(-c2nc(-c3ccco3)cc(C(F)(F)F)n2)n1	5	-39	-3	-1%	-2.8	Arbovirus inh repeat=0

Following part:
SMILES	Arbovirus inh	YopH inh	Mtb bLac sens	Mtb growth	RecA splice inh	others
O=C(COc1ccc(Cl)cc1)Nc1nnc(-c2ccco2)o1	21	.	8	1%	-1.8
c1ccc(CSc2nnc(-c3c[nH]c4ccccc34)o2)cc1	-18	-48	-4	17%	-1.1
COc1cc(OC)cc(C(=O)OCC(=O)Nc2sccc2C(N)=O)c1	5	.	-7	4%	3.5
COc1ccccc1OCC(=O)NNc1c2ccccc2nc2ccccc12	.	.	-6	-2%	3.0
Nc1ccc(SC(F)(F)F)cc1	3	.	3	3%	-0.6
Cc1ccc(C(=O)N/N=C/c2ccc([N+](=O)[O-])s2)cc1	-28	3	100	?	-4.1
O=C(CN1C(=O)C2C3c4ccccc4C(c4ccccc43)C2C1=O)Nc1cccc(C(=O)O)c1 (configuration not stated)	22	-30	8	-4%	1.3
C=CCc1ccccc1OCC(O)CNC1CCCC1 (configuration not stated)	.	.	0	.	3.1
Cc1cc(/C=C2\C(=O)NC(=O)N(c3ccccc3)C2=O)c(C)n1-c1ccc(C(=O)O)c(Cl)c1	.	.	-2	.	-1.3
CC(=O)OCC1OC(OC(C)=O)C(NC(=O)Cc2ccccc2)C(OC(C)=O)C1OC(C)=O (configuration not stated)	-2	.	-1	-3%	0.9
O=C(Nc1ccc(Nc2ccccc2)cc1)Nc1ccccc1Cl	.	.	54	-6%	11
COC(=O)c1ccc(COC(=O)CCS(=O)(=O)c2ccc(C)cc2)cc1	6	.	1	0%	-1.9
O=C(NCc1ccco1)c1ccc(CN2CCOCC2)cc1	-1	-35	-7	-5%	-1.7	Arbovirus inh repeat=6
Cc1ccccc1Nc1nnc(SCC2CCCCO2)s1 (configuration not stated)	-8	-25	0	11%	1.8
O=c1ccc(Br)c[nH]1	0	-44	-6	0%	0.7
O=C(CN1C(=O)NC2(CCCc3ccccc32)C1=O)NCC(F)(F)F (configuration not stated)	.	.	-5	.	0.9
CC(C)CC(=O)Nc1nnc(CSCc2ccc(F)cc2)s1	.	.	-6	-6%	-7.1
COCC(C)n1c(C)cc(C(=O)COC(=O)c2n[nH]c3ccccc23)c1C (configuration not stated)	4	-20	-12	0%	2.0
COc1ccc(NC(=O)C2C3C=CC4(O3)C2C(=O)N(CCN2CCCCC2)C4C(=O)NC2CCCC(C)C2C)cc1 (configuration not stated)	.	.	-3	.	-6.0
CC(C)(C)[C@H]1C=C(C(=O)N2CCN(Cc3ccc4c(c3)OCO4)CC2)O[C@@H](OCc2ccc(CO)cc2)C1	-9	.	5	-4%	6.1
O=C(c1cnn2c(C(F)F)cc(-c3ccccc3)nc12)N1CCSCC1	-11	0	2	-2%	-7.0
COc1ccc(/C=C2\SC(=O)N(CCNC(=O)C3CCN(S(=O)(=O)c4cccs4)CC3)C2=O)cc1	1	-19	-3	-5%	1.4
O=C(COC(=O)/C=C/C(=O)N1CCN(c2ccccc2)CC1)NC(c1ccccc1)c1ccccc1	13	.	-1	1%	10
CCOC(=O)c1csc(-c2ccc3c(c2)CCO3)n1	.	.	-6	-3%	0.2

17 entries already listed, ordered by length of the SMILES, highest first.
SMILES	Arbovirus inh	YopH inh	Mtb bLac sens	Mtb growth	RecA splice inh	others
CC(C)(C)[C@H]1C=C(C(=O)N2CCN(Cc3ccc4c(c3)OCO4)CC2)O[C@@H](OCc2ccc(CO)cc2)C1	-9	.	5	-4%	6.1
COc1ccc(NC(=O)C2C3C=CC4(O3)C2C(=O)N(CCN2CCCCC2)C4C(=O)NC2CCCC(C)C2C)cc1 (configuration not stated)	.	.	-3	.	-6.0
Cc1cc(/C=C2\C(=O)NC(=O)N(c3ccccc3)C2=O)c(C)n1-c1ccc(C(=O)O)c(Cl)c1	.	.	-2	.	-1.3
COc1ccc(/C=C2\SC(=O)N(CCNC(=O)C3CCN(S(=O)(=O)c4cccs4)CC3)C2=O)cc1	1	-19	-3	-5%	1.4
O=C(COC(=O)/C=C/C(=O)N1CCN(c2ccccc2)CC1)NC(c1ccccc1)c1ccccc1	13	.	-1	1%	10
CC(=O)OCC1OC(OC(C)=O)C(NC(=O)Cc2ccccc2)C(OC(C)=O)C1OC(C)=O (configuration not stated)	-2	.	-1	-3%	0.9
COCC(C)n1c(C)cc(C(=O)COC(=O)c2n[nH]c3ccccc23)c1C (configuration not stated)	4	-20	-12	0%	2.0
COC(=O)c1ccc(COC(=O)CCS(=O)(=O)c2ccc(C)cc2)cc1	6	.	1	0%	-1.9
O=C(CN1C(=O)NC2(CCCc3ccccc32)C1=O)NCC(F)(F)F (configuration not stated)	.	.	-5	.	0.9
Cc1ccc(C(=O)N/N=C/c2ccc([N+](=O)[O-])s2)cc1	-28	3	100	?	-4.1
O=C(Nc1ccc(Nc2ccccc2)cc1)Nc1ccccc1Cl	.	.	54	-6%	11
CC(C)CC(=O)Nc1nnc(CSCc2ccc(F)cc2)s1	.	.	-6	-6%	-7.1
CCOC(=O)c1csc(-c2ccc3c(c2)CCO3)n1	.	.	-6	-3%	0.2
Cc1ccccc1Nc1nnc(SCC2CCCCO2)s1 (configuration not stated)	-8	-25	0	11%	1.8
C=CCc1ccccc1OCC(O)CNC1CCCC1 (configuration not stated)	.	.	0	.	3.1
Nc1ccc(SC(F)(F)F)cc1	3	.	3	3%	-0.6
O=c1ccc(Br)c[nH]1	0	-44	-6	0%	0.7

Next entries:
SMILES	Arbovirus inh	YopH inh	Mtb bLac sens	Mtb growth	RecA splice inh	others
COc1ccccc1C(=O)c1nc2ccccc2n1C	.	.	-5	.	2.1
CN1CCC(N(C)CC(=O)Nc2ccc3c(c2)OC(F)(F)O3)CC1	.	.	-11	-8%	0.4
CCCn1nnnc1SCC(=O)N1C(C)CCCC1C (configuration not stated)	.	.	-4	.	3.7
CSc1c(CN2CCN(C)CC2)c2ccccc2n1C	.	.	-8	.	0.5
CC(=O)Oc1cccc(/C=C2\C=C(c3ccc(C)cc3)OC2=O)c1	12	.	-4	13%	3.0
Cc1ccc(S(=O)(=O)c2cc3c(=O)n4ccccc4nc3n(C3CCCCC3)c2=N)cc1	.	.	-3	.	-4.7
Clc1cc2nc3ccccn3c2cc1Cl	-3	0	-6	5%	-1.0
CCC(C)NC(=O)c1cnn2c1NC(c1cccs1)CC2C(F)(F)F (configuration not stated)	-5	-35	-2	5%	3.3
CC(C)c1cc(=O)n2[nH]c(SCc3ccccc3)nc2n1	.	.	2	.	-1.1
COc1ccc(N2C(=O)C3C(C2=O)C(C(=O)c2ccccc2)N2CCCC32)cc1 (configuration not stated)	.	.	3	-1%	2.4
CCOc1ccc2ccccc2c1C(=O)N[C@@H]1C(=O)N2[C@@H]1SC(C)(C)[C@@H]2C(=O)O	4	.	5&4	1%	0.3
CN(C)S(=O)(=O)c1cccc(NC(=O)Cc2ccc(Cl)cc2)c1	10	-31	3	3%	-1.5
COc1ccc(C(=O)NC2CCCc3ccccc32)cc1[N+](=O)[O-] (configuration not stated)	.	.	7	.	1.6
COc1ccc(CNC(=O)CCS(=O)(=O)c2ccc3c(c2)NC(=O)CS3)cc1	.	.	1	.	-1.3
CC1=CC(C)(C)NC(=S)N1c1ccc(C)c(C)c1	6	.	-5	-5%	-2.0
COc1ccc(NC(=O)c2ccccc2)cc1NS(=O)(=O)c1ccc(F)cc1	8	-28	4	-4%	1.1
COc1ccc(C)cc1NC(=O)CNC(=O)c1sc2ccccc2c1Cl	.	.	0	.	0.5
Cc1cc(C)nc(SCc2ccccc2C#N)n1	-2	-22	0	-3%	2.3	Arbovirus inh repeat=-3
CCCNc1cc(=O)n(C)c(=O)n1C	-2	-25	-4	0%	-2.5
Cc1cccnc1NC(=O)C(C)Oc1ccccc1 (configuration not stated)	0	-15	-11	-3%	-0.4
COc1cccc(C=Nc2ccccc2C#N)c1O	0	-30	1	-1%	1.7
CC(=O)Nc1ccc(S(=O)(=O)N2CCN=C2c2ccccc2)cc1	.	.	9	.	-6.9
Cc1cc(Nc2ccc(Br)cc2)n2nc(C)nc2n1	0	-34	-4	1%	4.1	Arbovirus inh repeat=-1
O=[N+]([O-])c1cc(C(F)(F)F)ccc1-n1nnc2ccccc21	-12	-3	-1	-6%	-0.6
COc1ccc(CN(Cc2ccc(OC)cc2)S(=O)(=O)c2ccc(-n3cnnn3)c(C)c2)cc1	2	-15	7	-6%	0.4
Cc1cccc2c(C(=O)N3CCN(C(=O)c4ccco4)CC3)cc(-c3cccc(Br)c3)nc12	-27	.	62	?	18

Screening data deposited in PubChem by several laboratories.
